Screening data deposited in PubChem by National Center for Advancing Translational Sciences (NCATS).
Vaccinia mCherry – qHTS for Stage-Specific Inhibitors of Vaccinia Orthopoxvirus: mCherry Reporter Primary qHTS; Vaccinia virus mCherry reporter infection, fluorescence; about a quarter of the inactives have no number; Potency, µM (series often up to 36.5 µM), for the others: at the highest dose activity change, negative = inhibition, usual class: inhibitors; 310,000 compounds, 0.63% hits; active = well fitted inhibition curve with a large enough effect; inconclusive = small, poorly fitted or top-dose-only effect; inactive = no such curve, though single readings can be large or run the other way; tested in A549 cells; further: nearly all actives have a fitted effect of over 35% in size; inactives centre near -10
Vaccinia Venus – qHTS for Stage-Specific Inhibitors of Vaccinia Orthopoxvirus: Venus Reporter Primary qHTS; Vaccinia virus Venus reporter expression, fluorescence; Potency, µM (series often up to 36.5 µM), without a hit: top-dose activity change, negative = inhibition, usual class: inhibitors; 330,000 compounds, 0.46% hits; active means well fitted inhibition curve with a large enough effect; inconclusive means small, poorly fitted or top-dose-only effect; inactive means no such curve, though single readings can be large or run the other way; tested in A549 cells; further: nearly all actives have a fitted effect of over 30% in size; inactives centre near -10
Active calls of the source: *; i = inactive; ? = inconclusive; . = not tested or not shown; & = joins results of further samples; [ ] = remark or other dose. On the % scale 0 is the no-effect control and ±100 the full control effect; potency means the concentration at half of the fitted maximal effect.

SMILES	Vaccinia mCherry	Vaccinia Venus
Cc1cc(F)ccc1NC(=O)C(c1ccccc1)N1Cc2ccccc2C1=O (stereo not given)	i	-7.4%
CC1=C(C#N)C(=O)N(C)C(C)(C)C1	.	-1.2%
Cc1c(C)c(C)c(S(=O)(=O)n2[nH]c(=O)c(CCO)c2C)c(C)c1C	-9.1%	-14.8%
COc1cc(-c2nnc(SCC(=O)OC3CCCCC3)o2)cc(OC)c1OC	-4.8%	-10.3%
O=C(Cc1cccs1)NNC(=O)c1ccc(F)cc1	i	-8.2%
CO/N=C(/c1nonc1N)N1CCN(c2ccc([N+](=O)[O-])cc2)CC1	.	-12.8%
CCOC(=O)N1CCN(Cc2nc3cc(NC(=O)c4ccc(OC)cc4)ccc3n2C(C)C)CC1	?	?
Cc1ccc(C(=O)OCC(=O)NCCC2=CCCCC2)cc1N	-5.9%	-4.6%
O=C(NNC(=O)c1c(F)cccc1F)c1ccccc1OC(F)(F)F	-9.0%	-6.0%
O=C(COc1ccccc1F)Nc1ccc2nc(SCC(=O)N3CCCC3)sc2c1	-22.8%	-22.5%
CCn1c(CC(=O)Nc2ccc(OC)cc2)nnc1SCC(=O)N1CCOCC1	-12.6%	-12.3%
CC(=O)C1CCC2C3CCC4CC(=O)CCC4(C)C3C=CC12C (stereo not given)	-11.0%	-4.6%

Random excerpt: 4 entries already listed, in no set order.
SMILES	Vaccinia mCherry	Vaccinia Venus
CCOC(=O)N1CCN(Cc2nc3cc(NC(=O)c4ccc(OC)cc4)ccc3n2C(C)C)CC1	?	?
CC(=O)C1CCC2C3CCC4CC(=O)CCC4(C)C3C=CC12C (stereo not given)	-11.0%	-4.6%
O=C(COc1ccccc1F)Nc1ccc2nc(SCC(=O)N3CCCC3)sc2c1	-22.8%	-22.5%
COc1cc(-c2nnc(SCC(=O)OC3CCCCC3)o2)cc(OC)c1OC	-4.8%	-10.3%

Continued:
SMILES	Vaccinia mCherry	Vaccinia Venus
CSC1=NC2C(N1)N(C)C(=O)N2C (stereo not given)	.	-7.4%
O=C(Nc1cccc(S(=O)(=O)NC2=NCCC2)c1)c1c(F)cccc1Cl	-14.0%	-10.1%
CN(C)C1=NCCN1CCC1CCCCC1	?	-6.7%
COc1ccc(N2CCN(Cc3cc(=O)oc4ccc(OC)cc34)CC2)cc1	-6.3%	-12.7%
COC(=O)[C@]1(C)N[C@H](CN(C)S(=O)(=O)c2ccc(OC(F)(F)F)cc2)[C@@H]2C(=O)N(C)C(=O)[C@@H]21	-15.6%	0.0%
CSc1nc(NS(=O)(=O)c2ccc(F)cc2F)nn1C	-18.0%	-18.9%
CCOCCN1CCN(c2c(CC)c(C)nc3cc(-c4cc(OC)cc(OC)c4)nn23)CC1	-18.5%	?
CCCCCCc1ccc(N2C[C@H](Cc3ccccc3)[C@@H](CC(=O)NCc3ccc(OC)cc3)C2=O)cc1	?	?
COc1cc(C(=O)NC(C)c2ccc(S(N)(=O)=O)cc2)ccc1OCC(=O)N1CCOCC1 (stereo not given)	-18.2%	-4.1%
CCCc1ccccc1OCCNC(C)=O	-17.1%	-15.4%
CCn1c(SCC(=O)N2CCN(c3ccccc3)CC2)nnc1-c1cc2cc(Cl)ccc2o1	-7.0%	-15.5%
CN1CCN(C(=S)Nc2ccc(Cl)cc2Cl)CC1	.	-16.3%
COc1ccc(CCC(=O)NCCS(=O)(=O)N2CCN(c3ccccc3)CC2)cc1	i	-20.7%
O=C(NCCC1=CCCCC1)C1CCC(CNc2c(N3CCCCC3)c(=O)c2=O)CC1 (stereo not given)	12.8%	-7.1%
COc1ccc(-c2cnc3c(NC(C)=O)cc(-c4cccc(C(=O)NCCO)c4)cn23)cc1OC	30.3%[activator]	-1.0%
C[C@@H]1CN([C@@H](C)CO)C(=O)CCCn2cc(nn2)CO[C@H]1CN(C)S(=O)(=O)c1ccc(C#N)cc1	i	-5.9%
CC1/C(=N/O)CC(c2ccco2)NC1c1ccco1 (stereo not given)	i	-8.1%
O=C(Cc1ccc(F)cc1)Nc1nnc(SCC(=O)NC2CCCC2)s1	-5.0%	-7.3%
CN(CC(=O)Nc1cccc(F)c1)C(=O)c1ccc2c(=O)n3c(nc2c1)CCC3	-8.8%	5.5%
COC(=O)C1CCN(C(=O)COC(=O)[C@@H]2CC(O)CN2S(=O)(=O)c2ccc3c(c2)OCCO3)CC1 (stereo not given in full)	-8.8%	-13.1%
Cc1c(Cl)cccc1NC(=O)CCC(=O)NNC(=O)CCC(=O)O	i	-5.6%
CC1=C(C)NC(=S)SC1	.	-9.8%
CC(=O)N1CCc2c(sc3c2c(=O)n(Cc2ccccc2)c(=O)n3Cc2cc(C)ccc2C)C1	i	-8.8%
Cc1ccc(S(=O)(=O)Nc2cccc(-c3cn4cccc(C)c4n3)c2)c(C)c1	-3.5%	-7.9%

The closing 3 records of the part before lead into the next.
SMILES	Vaccinia mCherry	Vaccinia Venus
CC1=C(C)NC(=S)SC1	.	-9.8%
CC(=O)N1CCc2c(sc3c2c(=O)n(Cc2ccccc2)c(=O)n3Cc2cc(C)ccc2C)C1	i	-8.8%
Cc1ccc(S(=O)(=O)Nc2cccc(-c3cn4cccc(C)c4n3)c2)c(C)c1	-3.5%	-7.9%
Cc1cc2c(cc1NS(=O)(=O)c1ccc(NC(=O)CC(C)C)cc1)n(C)c(=O)c(=O)n2C	-13.9%	-9.2%
CCOC(=O)[C@H]1[C@H]2COc3cc(OC)ccc3[C@@H]2N2C(=O)N(c3ccc(Br)cc3)C(=O)[C@@]12C	-11.5%	-21.4%
CNc1oc(-c2ccc(C)cc2)nc1P(=O)(c1ccccc1)c1ccccc1	-17.6%	-25.9%
CC(C)OC(=O)c1c(NC(=O)c2ccco2)sc2c1CCCCC2	-7.3%	-19.2%
Cc1c(NS(=O)(=O)c2cccc(C(=O)Nc3cccc(F)c3)c2)c(=O)n(-c2ccccc2)n1C	-3.3%	-21.2%
O=C(COc1ccc(Cl)cc1)OCC(=O)N1CCCCCC1	.	-2.7%
O=[N+]([O-])c1ccc(Sc2ccncn2)c([N+](=O)[O-])c1	-26.8%	?
Cc1cccc(NC(=O)CCn2nc(C)cc2C)c1	.	-5.8%
O=[N+]([O-])c1ccc(N/N=C/c2ccccc2)c(F)c1	?	-4.1%
O=C1N[C@@H](Cc2c[nH]c3ccccc23)C(=O)N[C@H]1Cc1ccccc1	-18.3%	-6.1%
COc1ccc(C(=O)c2cc(C(C)=O)c(Nc3ccccc3)s2)cc1	-9.4%	?
Cc1ccc(OCC(=O)Nc2ccc3nc(SCC(=O)Nc4ccc(C)cc4C)sc3c2)cc1	-13.3%	-9.8%
COc1cccc(N2CC(C(=O)Nc3c(C(N)=O)oc4ccccc34)CC2=O)c1 (stereo not given)	i	-13.4%
COc1ccc(CNC(=O)c2nnn(CC(=O)Nc3cc(C)cc(C)c3)c2N)cc1	1.3%	7.0%
COc1ccc(N(CC(O)Cn2c(C)nc3ccccc32)S(=O)(=O)c2ccccc2)cc1 (stereo not given)	-10.6%	-4.8%
Cc1cc(NC(=O)CCC(=O)N(c2ccccc2)C(C(=O)NC2CCCC2)c2cccs2)no1 (stereo not given)	-11.9%	-5.7%
Cc1ccc(-c2c(C(=O)NC(C)C)oc(=O)c3ccccc23)cc1	-3.9%	-10.1%
CC(=O)Oc1ccc(-c2nc3cc(Cl)ccc3c(=O)o2)cc1	-16.2%	17.8%
COC(=O)c1cccc(CN2C(=O)C(C)Sc3ccc(C#N)cc32)c1 (stereo not given)	-18.3%	-23.2%
CC1CCN(S(=O)(=O)c2cccc(C(=O)NC3CCCC3)c2)CC1	?	-24.7%
OC[C@H]1O[C@@H](c2nc(-c3ccccc3Br)no2)[C@H](O)[C@@H](O)[C@H]1O	i	-4.3%
CCCN(CCC)C1CC(=O)N(Cc2ccccc2)C1=O (stereo not given)	.	-14.5%
O=C(CN1CCN(S(=O)(=O)c2ccc3c(c2)OCCO3)CC1)Nc1cccc(F)c1	-5.9%	-10.4%
CCCC(=O)Nc1nc2ccc(NC(=O)c3cccnc3)cc2s1	?	?
Cc1ccccc1C(=O)Nc1cccc(NC(=O)c2ccc(F)cc2)c1	-10.7%	-8.8%
Cc1ccc(S(=O)(=O)N2CCOCC2)cc1NC(=O)CN1CCC(Cc2ccccc2)CC1	i	-28.6%
COC(=O)c1cc(NC(=O)C2C3C=CC(C3)C2C(=O)O)cc(C(=O)OC)c1 (stereo not given)	-9.5%	-2.9%
Cc1ccc(C(=O)NCC(=O)NCC(=O)OCC(=O)c2cccs2)cc1	-3.5%	-16.7%
O=C(/C=C/Nc1ccccc1O)c1ccco1	?	-5.5%
CCCNC(=O)C1(C)CCN(C(=O)COCc2ccccc2)C1 (stereo not given)	-3.5%	3.3%
CCCC(NS(=O)(=O)c1ccc(-c2ccc(=O)[nH]n2)s1)c1cccs1 (stereo not given)	-2.1%	-16.5%
COc1ccc(S(=O)(=O)N2CCN(C(=O)COc3ccc4c(C)cc(=O)oc4c3)CC2)cc1	i	-10.5%
O=C(CNC(=O)c1ccccc1F)OCc1cc(=O)n2ccsc2n1	-5.0%	-11.7%
O=C(COc1ccccc1)N1CCN(C(=O)c2cccc(F)c2)CC1	i[1.46 µM]	-27.2%
CCc1noc(C)c1C(=O)NNC(=O)c1ccc(Br)cc1	-7.1%	3.1%
CNS(=O)(=O)c1cccc(C(=O)OCC(=O)Nc2ccc(Cl)cn2)c1	i	8.1%

Overlap with the part before: two compounds; new compounds follow.
SMILES	Vaccinia mCherry	Vaccinia Venus
CCc1noc(C)c1C(=O)NNC(=O)c1ccc(Br)cc1	-7.1%	3.1%
CNS(=O)(=O)c1cccc(C(=O)OCC(=O)Nc2ccc(Cl)cn2)c1	i	8.1%
Cc1ccc(-c2cc(C(F)(F)F)n3ncc(C(=O)O)c3n2)cc1	i	-10.7%
CC(=O)Nc1ccc(S(=O)(=O)Nc2ccc(Cl)cn2)cc1	-12.9%	-2.1%
O=C(C[N+]12CCCc3cccc(c31)CCC2)c1ccc2ccccc2c1	i	-16.9%
COC(=O)c1ccc(NC(=O)CC2C(=O)N(c3ccccc3)C(=O)N2Cc2ccco2)cc1 (stereo not given)	-12.3%	-2.7%
COc1ccc(N(C(=O)c2ccco2)C(C(=O)NC2CCCCC2)c2ccccc2)cc1 (stereo not given)	.	-28.4%
NNC(=O)/C(=C\c1ccc(Br)cc1)NC(=O)c1cccs1	-7.3%	-8.6%
O=C(NCc1cccnc1)[C@@H]1CC=C[C@@H]2CCN(Cc3ccc(Cl)c(Cl)c3)C(=O)[C@@H]21	i	-20.9%&-19.0%
Cc1ccc2cccc(OCc3nnc(SCC(=O)O)n3C)c2n1	0.6%	9.3%
O=C(NCCSCc1ccccc1)c1ccccc1	-11.7%	-2.7%
CN(C)c1ccc(C(CNS(=O)(=O)c2ccc(Cl)cc2)N2CCCC2)cc1 (stereo not given)	-16.5%	-9.2%
CCOC(=O)c1c(C)oc2nc(C)nc(NCC3CCN(Cc4ccc(Cl)cc4)CC3)c12	i	-12.6%
CSc1cc(SC)ncn1	-15.4%	-6.4%
CC(=O)Oc1ccc(C(=O)COC(=O)CNC(=O)COc2ccccc2C)cc1	7.3%	-15.7%
O=C1N=c2ccccc2=C/C1=C\c1c(O)[nH]c(=S)[nH]c1=O	-7.2%	-2.8%
CCOC(=O)c1c(C)[nH]c(C)c1S(=O)(=O)N1CCCC(C(=O)N2CCN(c3cccc(Cl)c3)CC2)C1 (stereo not given)	?	?

6 consecutive compounds from above:
SMILES	Vaccinia mCherry	Vaccinia Venus
Cc1ccc(-c2cc(C(F)(F)F)n3ncc(C(=O)O)c3n2)cc1	i	-10.7%
CC(=O)Nc1ccc(S(=O)(=O)Nc2ccc(Cl)cn2)cc1	-12.9%	-2.1%
O=C(C[N+]12CCCc3cccc(c31)CCC2)c1ccc2ccccc2c1	i	-16.9%
COC(=O)c1ccc(NC(=O)CC2C(=O)N(c3ccccc3)C(=O)N2Cc2ccco2)cc1 (stereo not given)	-12.3%	-2.7%
COc1ccc(N(C(=O)c2ccco2)C(C(=O)NC2CCCCC2)c2ccccc2)cc1 (stereo not given)	.	-28.4%
NNC(=O)/C(=C\c1ccc(Br)cc1)NC(=O)c1cccs1	-7.3%	-8.6%
